# 2A Renilla: Primary qHTS Assay for Foot and Mouth Disease Virus Antivirals against NCGC Sytravon and CBC Compound Libraries: Renilla Luciferase Signal. 0.32% of 120,000 active. HEK cells with a luciferase reporter of 2A StopGo recoding. Potency, µM (series often up to 57.5 µM), for the others: top-dose signal change, negative = less light. AID 1745857, 2022; active means well fitted falling curve with a large enough effect; inconclusive means small, poorly fitted or top-dose-only effect; inactive means no such curve, though single readings can be large or run the other way; note: nearly all actives have a fitted effect of over 55% in size; overnight with compound
# StopGo FLuc: Primary qHTS Assay for Foot and Mouth Disease Virus Antivirals against NCGC Sytravon and CBC Compound Libraries: Firefly Luciferase Signal; HEK cells with a luciferase reporter of 2A StopGo recoding; Potency, µM (highest dose often 57.5 µM), for the others: at the highest dose signal change, negative = less light; 0.23% of 120,000 active; AID 1745856, 2022; active = well fitted falling curve with a large enough effect; inconclusive = small, poorly fitted or top-dose-only effect; inactive = no such curve, though single readings can be large or run the other way; note: nearly all actives have a fitted effect of over 60% in size; overnight with compound
# * marks the source's active call; other numbers are inactive results; ? = inconclusive; & = joins results of further samples; [ ] = dose if it differs, or a comment. % is set by controls: 0 for no effect and ±100 for the full control effect; potency is the fitted concentration of half-maximal effect. A portion of the library; the hit share may differ from the screen's.
SMILES,2A Renilla,StopGo FLuc
Cc1cc(O)c2c(CN3CCN(CCO)CC3)cc(=O)oc2c1,-4%,0%
CCn1nc(C)c(CCN(C)C(=O)Nc2cc(Cl)c(OC)cc2OC)c1C,-9%,0%
O=C(COCc1cc(-c2cccs2)on1)Nc1cccc(O)c1,-1%,18%
CC(c1cc2ccccc2o1)N(C)Cc1nc(-c2ccc(C(F)(F)F)cc2)no1 (stereo not given),-15%,-1%
CSCCC(NC(=O)[C@@H](NC(=O)c1ccc(F)cc1)C(C)C)c1nnc2ccccn12 (stereo not given in full),11%,3%
CC(=O)Nc1ccc(S(=O)(=O)NCC2CCC(C(=O)NCCc3cccc(C)c3)CC2)cc1 (stereo not given),-2%,-2%
CC(C)OCCCNC(=O)c1ccc2c(c1)N(Cc1c(F)cccc1Cl)C(=O)c1ccccc1S2,?,?
CCN(CC)CCNC(=O)c1ccc(-n2c(-c3ccccc3)cc3c2CCCC3)cc1,13%,27%
CC(C)NC(=O)C1CCN(C(=O)N2CCOc3ccc(Cl)cc32)CC1,-7%,-10%
COc1ccc(-c2nc(SCC(=O)Nc3ccc4c(c3)OCCO4)c(-c3ccc(C)cc3)[nH]2)cc1OC,59%[activator],14%
CCc1cc2c(CSc3nc(C)cc(C)c3C#N)cc(=O)oc2cc1O,29%,8%
CC(C)(C)CC(=O)NCC1CN(Cc2ccccc2)CCO1 (stereo not given),8%,0%
Cc1ccc(C)c(C(=O)c2ccccc2C(=O)N(C)Cc2cccs2)c1,86%[activator],5%
O=C(CN1C(=O)COc2ccc(S(=O)(=O)N3CCCCCC3)cc21)NCc1ccc(F)cc1,-4%,-21%
CCc1ccc(OC(=O)c2ccccc2Br)cc1,8%,118%[activator]
Cc1cccc(C(=O)NCC(=O)OCc2cc(=O)n3nc(C4CC4)sc3n2)c1,-5%&7%,3%&1%
CCOC(=O)Cn1c(=O)c2c3c(sc2n(CCN(C)C)c1=O)CCC(C)C3 (stereo not given),-8%,-7%
CCOc1ccc(NC(=O)c2c(C)nn(-c3cccc(C)c3)c2-n2cccc2)cc1,1%,11%
NC(=O)c1cccc(CSc2ncc(C(F)(F)F)cc2Cl)c1,22%,66%[activator]
CC1(c2ccc(Cl)cc2)CC(C)(C)N(C(=O)c2ccccc2)c2ccccc21 (stereo not given),?,?
COc1ccc(CNC(=O)CSc2nc3ccccc3nc2Cc2ccccc2OC)cc1,4%,5%
COc1ccc(-n2ccnc(NCCc3ccccc3)c2=O)cc1OC,5%,-2%
CCOC(=O)c1cccc(NC(=O)CCS(=O)(=O)c2ccc3c(c2)CC(=O)N3C)c1,-15%,-8%
CCCN(CC(=O)Nc1ccc(S(=O)(=O)N2CCCCC2)cc1)Cc1nnc(-c2ccco2)o1,90%[activator],0%
Cc1oc2c(c1C(=O)Nc1ccccc1Br)C1=NCCN1C=N2,248%[activator],33%[activator]
CC(NCc1ccccc1Cl)C(=O)Nc1ccc(C(C)(C)C)cc1 (stereo not given),-7%,6%
O=C(c1ccc(F)c(F)c1)N(Cc1ccco1)C1CC1,20%,-3%
CC(C)(C)c1ccc(CCC(=O)NC(C(N)=O)c2ccccc2)cc1 (stereo not given),?,?
CCCNC(=O)c1cccc(CNCc2cccnc2)c1,-2%,0%
CCOc1ccc(/C=C/c2nc(C#N)c(N3CCN(c4ccc(OC)cc4)CC3)o2)cc1,1%,-3%
N#Cc1ccccc1NC(=O)CCc1ccsc1,42%[activator],191%[activator]
CCOc1cc(COC(=O)c2ccc(S(=O)(=O)N3CCCC3)cc2)ccc1OC(F)F,-13%,-10%
Nc1nccnc1C(=O)NCCCc1nc2ccccc2[nH]1,-2%,1%
Cc1cc(C)cc(NC(=O)CSc2oc(-c3ccco3)nc2S(=O)(=O)c2ccccc2)c1,0%,-10%
CCOC(=O)COc1ccc(-c2nnn(CC(=O)Nc3ccccc3)n2)cc1,5%,-17%
O=C(NCCc1ccccc1)c1c2c(nc3ccccc13)C(=O)N(C1CCCCC1)C2,40%[activator],16%
Cc1oc2ncn(CC(C)C)c(=O)c2c1C(=O)NCCCN1CCC(C)CC1,-23%,-2%
CCN1CCN(Cc2cc(=O)oc3cc(C)c(C)cc23)CC1,-8%,6%
Cc1cccc(CSc2ccc3nnc(CCNS(=O)(=O)c4ccccc4)n3n2)c1,115%[activator],0%
N#Cc1ccccc1CSCCNC(=O)NCc1ccc(CN2CCCC2)cc1,2%,10%
Cc1cccc(C)c1NC(=O)Cn1c(=O)n(Cc2ccc(C(=O)NCc3ccco3)cc2)c(=O)c2sccc21,?,?
CCOC(=O)c1oc2cc(OCC)ccc2c(=O)c1-c1ccc(Br)cc1,-9%,-2%
Cc1nc2ccccc2c(C)c1CC(=O)NCCc1c[nH]c2ccccc12,?,?
CN(C)CCNc1nc2c(c(=O)[nH]c(=O)n2C)n1Cc1cccc2ccccc12,-17%,-14%
Cn1c(=O)c2c(nc(N3CCN(C/C=C/c4ccccc4)CC3)n2Cc2ccccc2)n(C)c1=O,-8%,3%
O=C(CCS(=O)(=O)c1cc(Br)cc2c1N(C(=O)C1CC1)CC2)Nc1ccc(F)cc1,-5%,-5%
CCN(CC)S(=O)(=O)c1ccc(NS(=O)(=O)c2ccccc2C#N)cc1,16%,0%
CCOc1ccc(NC(=O)C2Cc3ccccc3N2C(=O)c2ccccc2)cc1 (stereo not given),-11%,-16%
O=C1OC(C(=O)Nc2cc(C(F)(F)F)ccc2Cl)Cc2ccccc21 (stereo not given),-7%,-1%
O=C(Nc1ccon1)c1cccn(Cc2cccc([N+](=O)[O-])c2)c1=O,-19%,-13%
O=C(OCC(=O)N1CCCC1)c1c[nH]c2ccccc12,5%,124%[activator]
Cc1ccc(S(=O)(=O)c2nnn3c2nc(NCc2ccccc2Cl)c2sccc23)cc1,2%&-11%,2%&-30%
Cc1ccc(S(=O)(=O)NCCc2sc3nc(-c4ccccc4)nn3c2C)cc1C,57%[activator],-7%
CCOc1ccc(NS(=O)(=O)c2ccc3[nH]c4c(c3c2)CCCCC4)cc1,-4%,-19%
Cc1ccc(CCNC(=O)CCn2nc(-c3ccc(C)cc3)ccc2=O)cc1,-5%,-1%
Cc1ccc(NC(=O)CCCn2c(=O)c3cccn3c3cccnc32)cc1C,-9%,-12%
CN(Cc1ccco1)C(=O)c1cccc(S(=O)(=O)N2CCN(Cc3ccccc3)CC2)c1,1%,7%
CCNC(=O)COC(=O)c1c(C)c(-c2ccccc2)nc2ccccc12,11%,10%
NS(=O)(=O)c1ccc(CCNC(=O)Cn2c(-c3cccs3)cc3ccccc32)cc1,-4%,-19%
CC(NC1CC1)c1ccc2ccccc2c1 (stereo not given),?,78%[activator]

# (more compounds)
SMILES,2A Renilla,StopGo FLuc
Cc1cc(C(=O)COc2ncnc3ccccc23)c(C)n1CC(F)(F)F,-8%,135%[activator]
CC1=C(C(=O)Nc2cccc(C(=O)N3CCN(c4ccccc4)CC3)c2)SCCO1,-2%,-1%
Cc1oc2cc(OCc3ccc(F)cc3)ccc2c(=O)c1Oc1ccccc1,-7%,13%
CCOc1ccc(Nc2nc(N)c(C(=O)c3ccccc3Cl)s2)cc1,323%[activator],-3%
O=C(CSc1nc2ncccc2c(=O)n1-c1ccccc1)NC1CCCCCC1,-1%,3%
O=C(O)CCC(=O)C(CC(=O)O)CC(=O)O,17%,39%[activator]
N#Cc1nc(Cc2ccccc2)oc1N1CCC(Cc2ccccc2)CC1,-4%,27%
COc1cc(NS(=O)(=O)c2cc3c(cc2C)N(C)CCO3)cc(OC)c1OC,-6%,-11%
COCCc1nn2c(=O)cc(COC(=O)C(c3ccccc3)c3ccccc3)nc2s1,?,-1%
CC1(C)CC(=O)C2=C(C1)Nc1[nH]n(-c3ccccc3)c(=O)c1C2c1ccc(F)cc1 (stereo not given),156%[activator],43%[activator]
O=C(Cc1ccc(Cl)cc1)NCc1coc(-c2cccs2)n1,0%,4%
NC(=O)C(Sc1ccccc1F)c1ccccc1 (stereo not given),-9%,-10%
CCc1cccc(CC)c1NC(=O)COC(=O)c1cc(C)nc2ccccc12,-10%,-9%
O=C1CN=C(c2ccccc2Cl)c2cc(Cl)ccc2N1Cc1cccc(Cl)c1,32µM*,25µM*
CCC(C)NC(=O)CSc1nnc(-c2ccc(C)cc2)c(-c2ccc(C)cc2)n1 (stereo not given),-6%,-2%
Cc1ccc(C(=O)Nc2c(N3CCCC3)c3ccccc3oc2=O)cc1,3%,11%
COc1cc2c(-c3ccccc3O)nc3c(c(C)nn3-c3ccccc3)c2cc1OC,-5%,-2%
COc1ccc(/C=N/O)cc1O,6%,21%
CC12CCC(C/C1=N\NC(=O)c1ccccc1)C2(C)C (stereo not given),13%,7%
CCNC(=O)NC(=O)C(C)OC(=O)c1cc(-c2cccs2)nc2ccccc12 (stereo not given),15%,25%

# Filtered by structure: the entries above containing a tert-butyl group
SMILES,2A Renilla,StopGo FLuc
CC(C)(C)CC(=O)NCC1CN(Cc2ccccc2)CCO1 (stereo not given),8%,0%
CC(NCc1ccccc1Cl)C(=O)Nc1ccc(C(C)(C)C)cc1 (stereo not given),-7%,6%
CC(C)(C)c1ccc(CCC(=O)NC(C(N)=O)c2ccccc2)cc1 (stereo not given),?,?

# Other entries.
SMILES,2A Renilla,StopGo FLuc
CCOC(=O)CNC(=O)C(F)(F)C(F)(F)C(F)(F)C(F)(F)C(=O)NCC(=O)OCC,8%,14%
COC(=O)c1ccc(NC(=O)CCc2c(C)nc3c(c(C)nn3C(C)(C)C)c2C)cc1,-3%,-16%
O=C(COC(=O)COc1ccc2c(c1)CCC2)NC1CCS(=O)(=O)C1 (stereo not given),-12%,0%
CCc1ccc(NC(=O)CSc2ncc(-c3ccc(F)cc3)o2)cc1,-14%,24%
CCCn1c(=O)[nH]c(=O)c2c1nc(-c1ccc(OCC#N)c(OC)c1)n2CCN1CCOCC1,-5%,-4%
CCc1c(C)sc(NC(=O)c2ccc(F)cc2)c1C#N,15%,172%[activator]
O=[N+]([O-])c1cc(-c2nc(-c3ccccc3)no2)ccc1N1CCCC1,4%,?
O=C(O)CCCC(=O)c1ccccc1,-2%,8%
COc1ccccc1NC(=O)Cn1c(=O)n(-c2cccc(Cl)c2)c(=O)c2c1c1cc(C)ccc1n2C,-12%,-16%
Clc1ccc(-c2nc3ccccc3o2)cc1,22%,122%[activator]
CCCCCCCCc1ccc(-c2ccc(C(=O)O)cc2)cc1,13%,28%
CCN(CC)C(=O)CN1CCN(C(=O)c2cc(-c3ccccc3)n[nH]2)CC1,-1%,13%
COc1nnc(-c2ccc(N3CCCCC3)c(NC(=O)c3ccccc3)c2)c2ccccc12,-2%,-7%
COC(=O)c1ccc(NC(=O)CC2C(=O)N(c3ccc(C)cc3)C(=O)N2Cc2ccc(OC)cc2)cc1 (stereo not given),9%,-22%
CCOC(=O)N1CCN(Cc2nc3cc(NC(=O)c4ccccc4[N+](=O)[O-])ccc3n2C(C)C)CC1,7%,9%
COc1cc(C)ccc1OCCSc1nc2ccc(NC(=O)c3cccs3)cc2s1,16%,-18%
Cc1ccc(C=O)n1-c1ccncc1,-8%,-7%
COc1cc(/C=C(\C#N)c2nc3ccccc3[nH]2)cc(I)c1OC,2%,0%
O=c1[nH]nc(-c2ccc(N3CCOCC3)c([N+](=O)[O-])c2)c2ccccc12,23%,62%[activator]
Cc1cc(C)cc(N2C(=O)CS(=O)(=O)C23C(=O)N(C)c2ccccc23)c1 (stereo not given),-4%,-11%
Cc1nn(Cc2ccc(Cl)cc2)c(C)c1NS(=O)(=O)c1c(C)nn(C(F)F)c1C,29%,-8%
COc1cccc(/C=C/c2nc3ccccc3s2)c1OC(F)F,3%[1.06 µM],176%[activator]
Cc1ccc(Cl)cc1NC(=O)NCCCN(C)CC(F)(F)F,21%,0%
Cc1ccncc1C(=O)O,5%,17%
COc1ccc(C2CC(=O)c3cc(-c4nc(-c5ccc(C)cc5)cs4)c(=O)[nH]c3C2)cc1 (stereo not given),-9%,-12%
CCCCCCOc1ccc(C2C(=O)N(C3CCCCC3)CC(=O)N2CCCC)cc1 (stereo not given),7%,8%
Cc1cc2c(n1-c1ccc(C(=O)NCC(C)c3ccccc3)cc1)CCCC2 (stereo not given),7%,16%
CC12CC3CC(C)(C1)CC(NCc1ccc(C(=O)O)cc1)(C3)C2,11%,3%
Cc1cc(C)n(-c2nc3ccccc3nc2NCc2ccc(F)cc2)n1,11%,8%
COc1cc(NC(=O)Cn2c(SCc3ccc(F)cc3)nc3cccnc32)cc(OC)c1,2%,39%[activator]
O=C(/C=C/c1cccc([N+](=O)[O-])c1)c1cccc2ccccc12,23%,0%

# Profiles, quoted from the list. Values in the order: 2A Renilla | StopGo FLuc
# `CC12CC3CC(C)(C1)CC(NCc1ccc(C(=O)O)cc1)(C3)C2` as listed: 11% | 3%
# `Cc1cc2c(n1-c1ccc(C(=O)NCC(C)c3ccccc3)cc1)CCCC2` (stereo not given) as listed: 7% | 16%

# Rewritten as labelled records: four of the compounds above.
CC12CC3CC(C)(C1)CC(NCc1ccc(C(=O)O)cc1)(C3)C2
  2A Renilla: 11%
  StopGo FLuc: 3%

Cc1cc(C)n(-c2nc3ccccc3nc2NCc2ccc(F)cc2)n1
  2A Renilla: 11%
  StopGo FLuc: 8%

COc1cc(NC(=O)Cn2c(SCc3ccc(F)cc3)nc3cccnc32)cc(OC)c1
  2A Renilla: 2%
  StopGo FLuc: 39%[activator]

O=C(/C=C/c1cccc([N+](=O)[O-])c1)c1cccc2ccccc12
  2A Renilla: 23%
  StopGo FLuc: 0%
